eIF4H inh: inhibitors of RNA binding by human eIF4H; eIF4H fluorescence polarization binding assay; inhibition, % at 35 µM; hit rate 0.94% among 290,000; AID 2012;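 active = 50% or more with normal probe brightness, or confirmed in later tests; about a fifth of its hits are not listed in these tables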;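 also: calls also rest on retests at 20 µM and on dose response follow-up; 0% = protein and probe with vehicle and 100% = probe without protein; strong numbers were not always called active; many hits fall short of the cut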
Env fusion inh: blocks HIV Env-driven cell-cell fusion; AID 651610; hit rate 1.1% among 360,000; HeLa-JRFL Env/CEM21 cell fusion, luciferase; inhibition, % at 12.3 µM;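 active = mean replicate inhibition score of at least 50 and every replicate individually at or above 50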;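 also: 0% = plate neutral controls and 100% = maraviroc near 300 nM; one replicate is shown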
PABP polyA inh: blocks human PABP binding to poly(A) RNA. inhibition, % at 35 µM. AID 2014. hit rate 1% among 290,000. P11940. fluorescence polarization;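 active = 50% or more with normal probe brightness, or confirmed in later tests; about a fifth of its hits are not listed in these tables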;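 also: calls also rest on retests at 20 µM and on dose response follow-up; controls were probe without protein and protein plus probe with vehicle; some compounds called inactive have numbers as strong as hits; many hits fall short of the cut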
Target sequence (P11940 whole entry, looked up): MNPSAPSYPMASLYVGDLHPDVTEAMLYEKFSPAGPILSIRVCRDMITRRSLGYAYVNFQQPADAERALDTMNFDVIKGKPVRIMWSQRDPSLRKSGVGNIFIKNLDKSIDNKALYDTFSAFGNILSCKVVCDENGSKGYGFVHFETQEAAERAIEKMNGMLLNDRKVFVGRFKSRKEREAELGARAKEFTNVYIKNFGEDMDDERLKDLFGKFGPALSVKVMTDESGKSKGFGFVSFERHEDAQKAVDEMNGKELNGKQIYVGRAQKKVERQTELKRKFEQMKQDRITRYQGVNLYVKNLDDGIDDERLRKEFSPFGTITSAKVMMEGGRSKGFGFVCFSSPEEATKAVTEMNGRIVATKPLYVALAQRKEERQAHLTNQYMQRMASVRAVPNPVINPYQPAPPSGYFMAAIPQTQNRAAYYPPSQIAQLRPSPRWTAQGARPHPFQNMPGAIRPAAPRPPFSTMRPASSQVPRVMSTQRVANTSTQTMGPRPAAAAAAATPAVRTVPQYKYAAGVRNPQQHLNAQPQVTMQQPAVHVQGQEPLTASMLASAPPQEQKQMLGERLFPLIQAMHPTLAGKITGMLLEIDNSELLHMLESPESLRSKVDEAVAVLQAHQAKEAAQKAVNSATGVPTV
Rce1 inhib: yeast Ras-converting enzyme inhibition | calls only | yeast membranes, quenched prenylated peptide cleavage fluorescence | hit rate 0.27% among 290,000 | Q03530;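 active = fall in fluorescence gain of 50% or more versus controls, with final raw signal at or below 3038400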;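 also: plate controls were neutral control wells for no effect and wells lacking membranes for full effect; tested at 10 µM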
Target sequence (Q03530 whole entry, looked up): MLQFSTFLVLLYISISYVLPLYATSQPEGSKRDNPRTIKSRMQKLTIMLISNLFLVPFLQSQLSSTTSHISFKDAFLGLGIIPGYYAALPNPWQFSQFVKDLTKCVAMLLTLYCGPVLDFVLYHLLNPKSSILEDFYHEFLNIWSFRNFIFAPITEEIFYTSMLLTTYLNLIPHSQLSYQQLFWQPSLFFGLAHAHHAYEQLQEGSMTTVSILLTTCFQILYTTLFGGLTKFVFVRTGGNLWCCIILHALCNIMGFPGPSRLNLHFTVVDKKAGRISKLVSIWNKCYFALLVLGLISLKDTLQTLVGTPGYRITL
CSC inhib: blocks cancer stem cells; cancer stem cell-like cells viability, luminescence; hit rate 1.1% among 300,000; inhibition, % at 7.5 µM;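 active = mean at 75% or more and at least half the replicates too; tested in HMLE shEcad cells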;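 also: 0% = median of negative and 100% = median of positive control wells; the first replicate is given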
Yeast UUG start: alters start codon recognition fidelity in yeast; hit rate 0.13% among 350,000; activity score, % at 18.7 µM; AID 602363; S. cerevisiae UUG-firefly luciferase reporter, luminescence/redox ratio;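 active = replicate mean at a twofold rise or more, about +100% in these data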;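 also: firefly luciferase made from a UUG start codon reports start codon fidelity; reporter light over untreated wells divided by growth signal over untreated wells; some hits fall short of that in this replicate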
MT1-MMP act inh: blocks activation of human MT1-MMP; P50281; HT1080 RFP-PRO-GFP cells, GFP/RFP ratio fluorescence, overnight; percent of plate control window, DMSO zero; GFP/RFP ratio change, % at 20 µM; hit rate 0.061% among 360,000;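 active = GFP/RFP ratio change of at least 30% with cell ATP level not reduced by more than half and red fluorescence within 50% of control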; also: strong numbers were not always called active
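Assay system: HT1080 cells carrying an RFP-PRO-GFP reporter | Dosing: Single dose of 20 µM compound, 1% DMSO final | Incubation: Cells overnight before dosing, compound overnight, 37 °C, 5% CO2 | Evaluation: GFP/RFP fluorescence ratio | Control set: DMSO and RFP-L50D-GFP cell wells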
MT1-MMP act inh RFP: recorded beside MT1-MMP act inh, whose call it bears; RFP signal change, %; measured here: RFP expression control read;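 0 = vehicle wells; hits needed this value within 50% of zero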
* marks the source's active call; other numbers are inactive results; i = inactive; x = no result given; + = active, no number; & = joins results of further samples; [ ] = dose if it differs, or a comment.

(1) C/C(=N\O)C(=O)NCc1ccccn1
(2) Cc1cc(=O)[nH]c(SCCCOc2ccccc2Cl)n1
(3) CC(c1ccccc1)N1C(=O)c2ccc(C(=O)NCc3ccco3)cc2C1=O (centres undefined)
(4) Cc1cccc(C)c1-n1nnnc1C(C)(C)N1CCN(N=O)CC1
(5) Cc1c(C)n2c(SCC(=O)NC3CCCC3)nnc2[nH]c1=O
(6) COc1ccc(-c2csc(NC(=S)NC(=O)c3cc4ccccc4o3)n2)cc1Br
(7) Cc1ccc(S(=O)(=O)NN=Cc2c(O)ccc3ccccc23)cc1
(8) C#CCNC(=O)C1=C[C@@H](c2ccccc2)C[C@@H](OCc2ccc(CO)cc2)O1
(9) CCc1cc(=O)oc2cc(OCC(=O)N(CC)CC)c(Cl)cc12
(10) COc1ccc(OC)c(NC(=O)C(=O)N/N=C(\C)CC(=O)Nc2ccc(Cl)cn2)c1
Screen / compound no.,1,2,3,4,5,6,7,8,9,10
Env fusion inh,x,-41,x,8,2,1,-58,-10[16.7 µM],8,-10
Yeast UUG start,-21,-4,-7,x,x,-4,-24,9&-18,-3,-14
MT1-MMP act inh,1,0,2,-2,0,-4,6,8,1,-1
MT1-MMP act inh RFP,4,0,-3,-2,3,0,1,2,3,1
PABP polyA inh,5,8,-7,-3,x,16,x,-6,-8,3
eIF4H inh,11,8,-1,-14,x,-6,x,1,-12,-22
Rce1 inhib,i,i,i,i,i,i,x,i,i,i
CSC inhib,-4,-10,x,-4,1,14,x,-6,-17,-19

(11) COc1ccc(NC(=O)CCc2nnc3ccc(N4CCC(C)CC4)nn23)cc1
(12) c1ccc(-n2cnnc2SCc2cn3cccnc3n2)cc1
(13) CCOC(=O)C1CCN(C(=O)CNC(=O)c2nn(-c3ccc(OC)c(OC)c3)c(=O)c3ccccc23)CC1
(14) CC(=O)Nc1ccccc1/C=C/c1ccc2c(C)ccc(O)c2n1
(15) O=C(O)c1ccc2cccnc2c1O
(16) COc1cc2c(cc1OC)C(C)N(CC(=O)Nc1ccc(S(=O)(=O)N3CCCC3)cc1)CC2 (centres undefined)
(17) O=C1/C(=C/c2ccncc2)SC(=S)N1Nc1ccccc1
(18) O=C(O)c1cc(S(=O)(=O)N2CCCCC2)sc1Cl
(19) CC(OC(=O)CN1C(=O)c2ccccc2C1=O)C(=O)NC1CCCCC1 (centres undefined)
(20) Cc1cc(C)c(N(C(=O)Cn2nnc3ccccc32)C(C(=O)NC(C)(C)C)c2ccsc2)c(C)c1 (centres undefined)
Screen / compound no.,11,12,13,14,15,16,17,18,19,20
Env fusion inh,5,x,-9,12,9,-1,9,2,-5,x
Yeast UUG start,-8,-20,-3,x,-11,x,-24,x,-25,x
MT1-MMP act inh,-11,9,1,0,5,0,4,2,-1,-16
MT1-MMP act inh RFP,-6,2,2,-1,3,2,10,8,0,-12
PABP polyA inh,-4,13,-6,-5,4,0,1,-2,10,6
eIF4H inh,-11,-3,-3,2,2,1,-2,-12,-8,-8
Rce1 inhib,i,+,i,i,i,i,i,i,i,i
CSC inhib,2,-7,-22,-9,5,6,10,-15,x,-21

(21) CC(C)NC(=O)Cn1c(SCC(=O)c2ccc(F)cc2)nc2ccccc21
(22) O=S(=O)(c1cccs1)N1CCC(CO)(Cc2ccc(Cl)cc2)CC1
(23) O=C(COc1ccc(S(=O)(=O)N2CCCC2)cc1)N1CCCCC1
(24) Cc1cccc(NC(=O)COc2coc(CN3CCc4ccccc4C3)cc2=O)c1
(25) CCOc1ccc(CCNC(=O)C2CCN(S(=O)(=O)CC)CC2)cc1OCC
(26) Oc1c(C(c2ccc(F)cc2)N2CCc3ccccc3C2)sc2ncnn12 (centres undefined)
(27) CC1Cc2ccccc2N1C(=O)CSc1nn2c(=O)c(C(C)(C)C)nnc2s1 (centres undefined)
(28) O=C(COc1cc2oc(=O)c3c(c2cc1Cl)CCC3)Nc1cccnc1
(29) O=C(C[C@@H]1C/C=C/CC[C@@H](Cc2ccc(F)cc2)C(=O)OC[C@H](Cc2ccccc2)NC1=O)N[C@H](CO)Cc1ccccc1
(30) Cc1[nH]c2ccccc2c1/C=N/NC(=O)Cc1cccs1
Screen / compound no.,21,22,23,24,25,26,27,28,29,30
Env fusion inh,-32,2,6,x,x,-20,20,-14,4,5
Yeast UUG start,-4,x,-18,-1,-4,-7,x,-6,-1,0
MT1-MMP act inh,5,1,2,9,-2,-6,-6,-1,-1,3
MT1-MMP act inh RFP,3,-2,0,-1,1,4,-9,3,-4,0
PABP polyA inh,-8,4,9,x,14,-10,-4,-4,x,4
eIF4H inh,-3,-4,12,x,1,7,-8,-8,x,8
Rce1 inhib,i,i,i,i,i,i,i,i,x,i
CSC inhib,-5,33,-12,4,3,5,-1,4,x,5

(31) Cc1cc(=O)n2c3ccccc3n(CC(O)CN3CCOCC3)c2c1C#N (centres undefined)
(32) Cc1ccc(-n2nc(-c3ccco3)cc2C(=O)O)cc1
(33) FC(F)(F)c1nc2ccccc2c2nc3ccccc3n12
(34) CCOC(=O)C1(Cc2cccc(OC)c2)CCN(Cc2cccc(OC)c2OC)CC1
(35) Cc1cc2cc(C(c3nnnn3Cc3ccco3)N3CCc4ccccc4C3)c(=O)[nH]c2cc1C (centres undefined)
(36) N/N=C(\c1ccccc1)C12CN3CN(CN(C3)C1)C2
(37) COc1cc2c(cc1OC)CN(S(=O)(=O)c1cccs1)CC2
(38) C=CCC1(CC=C)CCCN1C(=O)c1cc(COc2ccc(F)c(F)c2)on1
(39) O=S(=O)(Nc1ccc(Cc2ccncc2)cc1)c1ccc(Br)cc1
(40) Cc1cc(S(=O)(=O)N2CCN(CC(=O)NC(C)(C#N)C3CC3)CC2)ccc1Br (centres undefined)
Screen / compound no.,31,32,33,34,35,36,37,38,39,40
Env fusion inh,-5,7,-39,7,x,-13,2,18,20,4
Yeast UUG start,19,x,x,x,x,x,x,-10,x,10
MT1-MMP act inh,4,-8,0,-4,-21,7,3,-1,-26,-2
MT1-MMP act inh RFP,4,4,1,-10,9,6,2,-5,-31,-7
PABP polyA inh,-22,60*,4,-6,85*,0,9,-4,-3,x
eIF4H inh,-9,94*,2,-3,63*,-2,2,-14,10,x
Rce1 inhib,i,i,x,x,i,x,i,i,i,x
CSC inhib,-21,7,5,3,8,-14,-22,-8,-12,x

(41) O=c1[nH][nH]c(C(F)(F)F)c1C=Nc1ccccc1Cl
(42) CCc1c(C(=O)NNC(=S)Nc2ccc(S(=O)(=O)Nc3ncccn3)cc2)csc1C
(43) CC(C(=O)NCCCc1ccccc1)n1cccc1C(=O)c1ccccc1 (centres undefined)
(44) CC(=O)Nc1ccccc1NC(=O)C/C(C)=N/NC(=O)c1ccccn1
(45) CCCC(=O)Nc1c(C(=O)OCC)oc2ccccc12
(46) CCOC(=O)/C=C/C(=O)OCC(=O)Nc1ccc([N+](=O)[O-])cc1
(47) Clc1ccc(-c2ccnc(Oc3ccc4ccccc4c3)n2)cc1
(48) Cc1ccc(OCC(=O)Nc2cccc(S(=O)(=O)N3CCCCC3)c2)c([N+](=O)[O-])n1
(49) O=C(NCc1cccs1)C(=O)NCC1OCCCN1S(=O)(=O)c1cccs1 (centres undefined)
(50) Cn1c(N)c(C(=O)COC(=O)COc2ccc3ccccc3c2)c(=O)n(C)c1=O
Screen / compound no.,41,42,43,44,45,46,47,48,49,50
Env fusion inh,-43,10,12,0,0,-1,x,x,16,20
Yeast UUG start,-7,-34,-8,x,-3,x,-1,x,x,x
MT1-MMP act inh,2,3,-4,-2,-2,-1,3,4,3,0
MT1-MMP act inh RFP,3,2,-3,1,2,-2,1,-4,6,4
PABP polyA inh,-1,4,x,2,-3,-3,6,2,8,12
eIF4H inh,8,9,x,0,1,-3,-5,-4,4,8
Rce1 inhib,x,i,i,i,i,i,i,i,i,i
CSC inhib,-17,5,5,x,-6,63,8,-4,4,-16

Sorted by molecular weight (descending): part of the list above.
(42) CCc1c(C(=O)NNC(=S)Nc2ccc(S(=O)(=O)Nc3ncccn3)cc2)csc1C
(48) Cc1ccc(OCC(=O)Nc2cccc(S(=O)(=O)N3CCCCC3)c2)c([N+](=O)[O-])n1
(50) Cn1c(N)c(C(=O)COC(=O)COc2ccc3ccccc3c2)c(=O)n(C)c1=O
(47) Clc1ccc(-c2ccnc(Oc3ccc4ccccc4c3)n2)cc1
Screen / compound no.,42,48,50,47
Env fusion inh,10,x,20,x
Yeast UUG start,-34,x,x,-1
MT1-MMP act inh,3,4,0,3
MT1-MMP act inh RFP,2,-4,4,1
PABP polyA inh,4,2,12,6
eIF4H inh,9,-4,8,-5
Rce1 inhib,i,i,i,i
CSC inhib,5,-4,-16,8

Additional structures.
(51) NC1=C(Cl)C(=O)c2ccc(S(N)(=O)=O)cc2C1=O
(52) COc1cc([N+](=O)[O-])ccc1NC(=O)Nc1ccc(C(=O)N2CCCC2)cc1
(53) COc1ccc(S(=O)(=O)N/N=C\c2ccc3c(c2)OCO3)cc1
(54) Fc1ccccc1-c1csc(=Nc2cccnc2)n1CC1CCCO1 (centres undefined)
(55) O=C(COc1ccc(S(=O)(=O)NC2CCCC2)cc1)NCC1CCCO1 (centres undefined)
(56) Cc1c(C)c2ccc(OCC(=O)Nc3cccnc3)c(C)c2oc1=O
(57) CC(C(=O)NCc1ccc2c(c1)OCO2)c1ccc([N+](=O)[O-])cc1 (centres undefined)
(58) CCOc1ccccc1C1C(C(=O)Nc2ccccc2OC)=C(C)Nc2nc(CCCO)nn21 (centres undefined)
(59) Cc1ccc(C(=O)NC(=S)NCc2ccccc2)cc1
(60) CC(C)(C)OC(=O)N[C@@H](Cc1ccccc1)[C@H](O)c1ccco1
Screen / compound no.,51,52,53,54,55,56,57,58,59,60
Env fusion inh,63*,2,x,28,8,-33,12,-47,-12,19
Yeast UUG start,-84,6,-13,x,x,-19,x,0,-18,2
MT1-MMP act inh,-26,1,6,-2,2,3,-3,-4,-4,7
MT1-MMP act inh RFP,-26,-1,2,-11,5,-10,-2,2,-3,3
PABP polyA inh,x,-1,0,-2,-16,0,3,11,-3,10
eIF4H inh,x,-1,-2,7,-9,-23,13,-4,-3,-7
Rce1 inhib,x,i,i,i,i,i,i,i,i,i
CSC inhib,x,-6,-6,-13,-10,-5,x,-21,5,4

(61) CCN(CC)CCCNC(=O)CC1Oc2ccc(C)cc2NC1=O (centres undefined)
(62) CCCn1c(SCC(=O)Nc2cc(S(=O)(=O)N(C)C)ccc2OC)n[nH]c1=O
(63) Cc1cc(NC(=O)CCC(=O)N(CC(=O)NC2CCCC2)c2ccc(C)c(F)c2)no1
(64) C[N+](C)(C)CC=O
Screen / compound no.,61,62,63,64
Env fusion inh,-3,1,-21,x
Yeast UUG start,-14,x,-9,-22
MT1-MMP act inh,5,2,-3,-3
MT1-MMP act inh RFP,6,0,-9,3
PABP polyA inh,9,-5,-6,x
eIF4H inh,-8,-2,-2,x
Rce1 inhib,i,i,x,x
CSC inhib,13,-3,-8,-14

An excerpt, so the mix of outcomes need not match the whole.
